# RanGTP-Impb inh: disruptors of Ran-importin-beta complex formation – biochemical, FRET, CFP-Ran, YFP-importin-beta, homogeneous, primary screen. AID 2216. cell-free CFP-Ran/YFP-importin-beta FRET ratio. 1.1% of 300,000 active. inhibition, % (concentration not given with the values);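 active = most replicates above 15%; inconclusive = exactly half above 15%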;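 also: 0% = DMSO wells and 100% = Ran loaded with GDP instead of GTP; wells of about 40 µL received 100 nL stock; the first replicate is given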
# Calb FLC: affects C. albicans growth with fluconazole; C. albicans CaCi-2 (fluconazole-resistant clinical isolate) + fluconazole, Alamar Blue growth, 48 h; growth inhibition, % (concentration not given with the values); 0.57% of 300,000 active; AID 1979;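 active = most replicates above 75%; inconclusive = exactly half above 75%; inactive = most below 75%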;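 also: all wells also contain fluconazole at 8 µg/ml as a sub-toxic cotreatment; 0% = median of DMSO wells and 100% = median of geldanamycin control wells; wells of about 8 µL received 7.5 nL stock; the first replicate is given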
# AF4-AF9 inh: blocks AF4 peptide binding to human AF9; P42568; AlphaScreen, biotin-AF4 peptide binding to FLAG-AF9; inhibition, % at 10 µM; 0.47% of 350,000 active; AID 651704;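 active = every replicate reaching a set inhibition limit, whatever the replicate mean, cut at about 25% in these data; inconclusive = mean inhibition reaches that limit but some replicates miss it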;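 also: 0% = plate neutral control median and 100% = total signal loss; the record names both 10 and 1 µM as test concentration; the first replicate is given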
# Target sequence (P42568 whole entry, looked up): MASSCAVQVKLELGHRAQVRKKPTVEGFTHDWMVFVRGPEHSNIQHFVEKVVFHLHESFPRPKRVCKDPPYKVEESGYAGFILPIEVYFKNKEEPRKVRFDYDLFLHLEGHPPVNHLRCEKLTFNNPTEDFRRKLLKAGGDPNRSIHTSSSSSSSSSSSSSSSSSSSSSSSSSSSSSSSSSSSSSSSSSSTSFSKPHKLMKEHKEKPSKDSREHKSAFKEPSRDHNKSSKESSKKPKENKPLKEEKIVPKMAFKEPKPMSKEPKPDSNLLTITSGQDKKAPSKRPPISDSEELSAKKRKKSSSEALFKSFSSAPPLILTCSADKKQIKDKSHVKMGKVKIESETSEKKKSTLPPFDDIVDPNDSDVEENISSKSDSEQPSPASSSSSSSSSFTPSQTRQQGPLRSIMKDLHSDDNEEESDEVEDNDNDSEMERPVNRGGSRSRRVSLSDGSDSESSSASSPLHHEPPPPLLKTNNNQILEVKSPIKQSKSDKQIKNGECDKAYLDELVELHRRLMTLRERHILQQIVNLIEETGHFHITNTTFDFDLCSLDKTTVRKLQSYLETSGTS
# rRNA inh HTS: inhibits bacterial ribosomal RNA function over humanized ribosomes | GFP signal change (wild-type ribosome), % (concentration not given with the values) | 1.6% of 350,000 active | E. coli WT GFP vs humanized-ribosome RFP mutants, fluorescence, 24 h; active compounds read low; DMSO median 0, no signal -100;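 active = significant combined selectivity score with lowered wild-type GFP, culture density cut under 30%, mutant RFP and density less affected; inactive = any of these conditions unmet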; also: one replicate is shown; some compounds called inactive have numbers as strong as hits
# Bfl-1 A1 inh: inhibitors of the anti-apoptotic protein A1, read as caspase activation. MEF A1-2A-BIM cells, Caspase-Glo 3/7 luminescence, 3 h; percent of clofoctol response, vehicle zero. caspase activation, % (no concentration beside the values). 0.066% of 330,000 active;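 active = over half of replicate activation scores above 10%, or exactly half above 10 with the replicate mean above 10; inconclusive = replicate mean below 10 yet half the replicates above 10; inactive = over half of replicates below 10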;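 also: wells of about 30 µL received 50 nL stock; many hits fall short of the cut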
# Beta apoptosis: blocks beta cell apoptosis; INS-1E cytokine-induced death, ATP luminescence, 48 h; percent of positive-control rescue, neutral wells zero; protection from apoptosis, % (concentration not given with the values); 0.8% of 300,000 active; AID 435005;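 active = all replicates at 75% or more, or half of them and the mean; inconclusive = half reach 75% but not the mean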;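 also: 0% = cytokine-treated negative control wells and 100% = positive control rescue; higher means more ATP so stronger rescue from cytokine killing; wells of about 40 µL received 100 nL stock; the first replicate is given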
# Vif TR-FRET: HIV-1 Vif–A3G interaction blockers – biochemical, TR-FRET, GST-Vif 1-94, biotin-A3G peptide, dose response retest, primary screen (AID 1117319); TR-FRET GST-Vif / biotin-A3G peptide binding; higher % means a stronger effect; test concentration not given here; strong numbers were not always called active; inhibition, %; hits with a dose series show IC50 in µM; 0.57% of 260,000 active;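 active = above the screen mean plus three standard deviations and confirmed in dose response; inconclusive = results disagree or hit not tested in dose response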;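 also: Vif residues 1-94 fused to GST binding biotinylated APOBEC3G peptide 110-148; 0% = full assay without inhibitor and 100% = GST in place of GST-Vif; retest series ran down from 100 µM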
# T cruzi repl: T. cruzi replication inhibition; 1.4% of 300,000 active; T. cruzi beta-gal in NIH3T3, luminescence, 90 h; inhibition, % (test concentration not listed);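 active = mean inhibition across valid replicates above about 55%, limit read from the data; inconclusive = mean below that limit but half or more replicates reach it; inactive = mean below it, under half of replicates reach it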;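 also: signal also drops with host cell toxicity which is not excluded here; 0% = plate median of DMSO wells and 100% = zero luminescence signal; higher percent means less beta-gal luminescence so fewer parasites; stock transfer was 50 nL into about 50 µL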
# rRNA inh HTS OD600: further read-out of rRNA inh HTS, marked with its call; OD600 change, %; measured here: OD600 growth;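 optical density of the mix in the first replicate; 0 = DMSO median and -100 = no signal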
# rRNA inh HTS RFP: also measured in rRNA inh HTS; calls as there; RFP signal change, %; measured here: RFP humanized mutant strains;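 first replicate; 0 = DMSO median and -100 = no signal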
# Starred values were filed as active, the others as inactive; u = inconclusive; x = no result given; & = joins results of further samples. Some of the compounds tested. The share of hits here may be higher or lower than overall.
# Letter code – A = RanGTP-Impb inh; B = Calb FLC; C = AF4-AF9 inh; D = rRNA inh HTS; E = rRNA inh HTS OD600; F = rRNA inh HTS RFP; G = Bfl-1 A1 inh; H = Beta apoptosis; I = Vif TR-FRET; J = T cruzi repl
> CN1CCN(Cc2cc(C(C)(C)C)c(O)c(C(C)(C)C)c2)CC1
  A: -1.2 | B: 0 | C: x | D: x | E: x | F: x | G: -0.3 | H: x | I: 3% | J: -22
> CCOC(=O)[C@@]12C(=O)C(=O)N[C@]1(c1ccccc1)C1OCCCC12 (stereo partly drawn)
  A: -2.4 | B: -4 | C: -2.6 | D: 9 | E: 7 | F: 3.7 | G: -0.3 | H: 0 | I: 0% | J: -11
> COC(=O)C1=C(c2cccc(OC)c2OC)C[C@@H]2CC[C@H]1N2C
  A: x | B: x | C: -0.2 | D: 4 | E: 16 | F: -6.2 | G: 1.6 | H: -1 | I: x | J: x
> Cc1cc(OCC(=O)OC(C)(C)C)c2c3c(c(=O)oc2c1)CCC3
  A: -1.8 | B: -9 | C: x | D: x | E: x | F: x | G: -0.5 | H: 1 | I: x | J: -22
> COc1ccccc1N=Cc1c(O)n(C)c(=O)n(C)c1=O
  A: -4.9 | B: -1 | C: x | D: x | E: x | F: x | G: -0.6 | H: 1 | I: 3% | J: 0
> COc1ccc(CCNCc2ccncc2)cc1OC
  A: -0.8 | B: -15 | C: -3.6 | D: 10 | E: 2 | F: -1.2 | G: 1.0 | H: -2 | I: -6% | J: -9
> O=C(O)[C@H]1C[C@@H]1[C@H](NP(=O)(c1ccccc1)c1ccccc1)c1ccccc1
  A: 0.4 | B: -6 | C: 3.0 | D: 9 | E: 15 | F: 7.7 | G: 0.5 | H: -3 | I: u | J: -15
> CN1C2CCC1/C(=C/c1ccccn1)C(=O)/C2=C\c1ccccn1
  A: x | B: x | C: 7.6 | D: -21 | E: 6 | F: 13 | G: u | H: 100* | I: 2% | J: x
> COC(=O)C1=C(c2cccc(OCc3ccccc3)c2)C[C@@H]2CC[C@H]1N2C(=O)NC1CCN(Cc2ccccc2)CC1
  A: x | B: x | C: 15 | D: -52 | E: -57 | F: -27 | G: 0.0 | H: 8 | I: x | J: x
> COc1ccccc1NC(=O)COC(=O)c1cc(C)n(C2CC2)c1C
  A: x | B: x | C: -1.2 | D: x | E: x | F: x | G: -1.0 | H: 2 | I: 11% | J: x
> CCN(CC)c1ccc([N+](=O)[O-])c2cccnc12
  A: -9.5 | B: 2 | C: 12 | D: -44 | E: -58 | F: -2.6 | G: -0.8 | H: 3 | I: -3% | J: 9
> Cc1ccc(OP(=O)(NC(C)c2ccccc2)Oc2ccc(C)cc2)cc1 (stereo not drawn)
  A: 8.4 | B: -4 | C: -0.3 | D: 16 | E: 14 | F: 1.0 | G: 0.3 | H: 15 | I: x | J: 17
> O=C(Cn1cnc2ccccc2c1=O)NCC(=O)N1CCC2(CC1)OCCO2
  A: 6.3 | B: -7 | C: x | D: x | E: x | F: x | G: 1.0 | H: -5 | I: -7% | J: -7
> CN(C)C(=O)Oc1ccc2c(c1)O/C(=C\c1cccc(Cl)c1)C2=O
  A: -3.8 | B: -15 | C: 5.0 | D: 6 | E: 14 | F: -2.2 | G: -2.3 | H: -6 | I: 0% | J: 5
> COC(=O)C1=C(c2c(C)noc2C)C[C@@H]2CC[C@H]1N2C(=O)NCc1ccc2c(c1)OCO2
  A: x | B: x | C: -3.8 | D: 8 | E: -2 | F: -6.9 | G: -0.2 | H: -2 | I: x | J: x
> C=CCn1c(O)c(C(C)=NCCCN(C)C)c(=O)[nH]c1=O
  A: -2.4 | B: 4 | C: 1.0 | D: 19 | E: 13 | F: -0.1 | G: -0.1 | H: x | I: x | J: 17
> CN(C)c1ccc(C2C3C=CC(C3)C2(C#N)C(=O)O)c(Br)c1 (stereo not drawn)
  A: 0.8 | B: 15 | C: 0.0 | D: 3 | E: 8 | F: 0.7 | G: 2.0 | H: x | I: x | J: -11
> C/C(=N/O)c1ccc2ccc3ccccc3c2c1
  A: 4.2 | B: -4 | C: 0.8 | D: -48* | E: -16* | F: -10* | G: -0.4 | H: x | I: x | J: 3
> Cn1c(O)c(/C=N/c2ccccn2)c(=O)n(C)c1=O
  A: 0.3 | B: -17 | C: -0.4 | D: 5 | E: 7 | F: -4.2 | G: -0.3 | H: -6 | I: 5% | J: -32
> Cc1c(C(=O)Nc2ccccc2)c2cc(O)ccc2n1Cc1ccccc1
  A: -0.8 | B: 15 | C: 4.7 | D: -20* | E: -6.3* | F: -1.2* | G: -0.2 | H: 4 | I: -2% | J: -3
> COC(=O)c1ccccc1OP(=O)(c1cccc([N+](=O)[O-])c1)c1cccc([N+](=O)[O-])c1
  A: -0.7 | B: -6 | C: 0.6 | D: 3 | E: 9 | F: -1.5 | G: -0.4 | H: -3 | I: -4% | J: -13
> CCOc1ccc(NC(=O)C2C3c4ccccc4C(c4ccccc43)C2C(=O)O)cc1 (stereo not drawn)
  A: 4.4 | B: -1 | C: 0.6 | D: -34* | E: -26* | F: 0.2* | G: -0.1 | H: -8 | I: 4% | J: 6
> OC1(c2cccnc2)CC2CCC(C1)N2Cc1nnnn1Cc1ccccc1 (stereo not drawn)
  A: -1.4 | B: 0 | C: x | D: x | E: x | F: x | G: 1.7 | H: -6 | I: 23% | J: 14
> O=C(NC[P+](=O)O)OCc1ccccc1
  A: 0.7 | B: x | C: x | D: x | E: x | F: x | G: 0.8 | H: -1 | I: -1% | J: -3
> COC(=O)C1=C(c2ccc(F)cc2F)C[C@@H]2CC[C@H]1N2C(=O)N1CCC(O)CC1
  A: x | B: x | C: 0.0 | D: -14 | E: 5 | F: 2.9 | G: 3.2 | H: 6 | I: x | J: x
> O=C1C2CCN(CC2)[C@@H]1Cc1ccc2ccccc2c1O
  A: -1.7 | B: -10 | C: x | D: x | E: x | F: x | G: 0.4 | H: -9 | I: -5% | J: -2
> COc1cccc(N=Nc2c(O)[nH]c(=S)[nH]c2=O)c1
  A: -6.9 | B: 24 | C: 4.3 | D: 6 | E: -2 | F: 0.0 | G: -3.7 | H: 15 | I: x | J: -50
> CCC1CCCCN1CC(=O)c1ccc(OC(F)F)cc1 (stereo not drawn)
  A: 4.8 | B: 1 | C: x | D: x | E: x | F: x | G: 1.1 | H: -6 | I: 15% | J: -14
> O=[N+]([O-])c1ccc(C[n+]2c(-c3ccccc3)cc(-c3ccccc3)cc2-c2ccccc2)cc1
  A: 12 | B: 107* | C: 3.7 | D: -58 | E: -76 | F: -34 | G: 0.3 | H: 14 | I: x | J: 52
> CCN1C(=O)NC(=O)/C(=C/c2cc(C)n(-c3sc(C)c(C)c3C#N)c2C)C1=O
  A: 5.4 | B: -23 | C: 2.1 | D: 27 | E: 14 | F: 8.0 | G: -0.7 | H: 0 | I: x | J: -15
> CCOC(=O)c1ccc(-[n+]2c(-c3ccccc3)cc(-c3ccccc3)cc2-c2ccccc2)cc1
  A: 1.2 | B: 39 | C: x | D: x | E: x | F: x | G: -0.9 | H: 123* | I: x | J: 65*
> CCCCNC(=O)Nc1ccc(C(O)(C(=O)OCC)C(F)(F)F)cc1 (stereo not drawn)
  A: 2.3 | B: -12 | C: x | D: x | E: x | F: x | G: -0.8 | H: -11 | I: u | J: -6
> CN(C)c1cc(N)c2c(n1)CCC2 (tested in a mixture with another compound)
  A: 1.4 | B: -15 | C: x | D: x | E: x | F: x | G: 0.2 | H: 6 | I: 2% | J: 5
> CC(=O)N1CCN(c2ccc(N=Cc3c(O)n(-c4ccc(Cl)cc4)c(=O)[nH]c3=O)cc2)CC1
  A: -3.9 | B: 10 | C: x | D: x | E: x | F: x | G: -0.2 | H: 1 | I: u | J: -7
> Cc1cc(C)cc(NC2=NCCCS2)c1
  A: 5.8 | B: -9 | C: 1.5 | D: 15 | E: 11 | F: -2.3 | G: -0.5 | H: 1 | I: x | J: -5
> COc1cccc(C2(C#N)CCN(C)CC2)c1
  A: 3.3 | B: -10 | C: -0.8 | D: 6 | E: 2 | F: -10 | G: -0.4 | H: -4 | I: u | J: -6
> Cn1c(=O)c2nncnc2n(C)c1=O
  A: u | B: 16 | C: x | D: x | E: x | F: x | G: -0.2 | H: 3 | I: 26% | J: -2
> Cc1nc2c(C(=O)N3CCC4(CC3)OCCO4)cnn2c(C)c1Cc1cccc(Cl)c1
  A: 8.0 | B: -40 | C: -0.8 | D: -8 | E: -22 | F: 5.5 | G: 0.5 | H: 4 | I: -1% | J: 12
> Cc1ccc2c(c1)c(=O)c1c3n2CCN(CC2CO2)C3CC1 (stereo not drawn)
  A: 29* | B: 9 | C: 0.3 | D: 11 | E: 13 | F: 7.5 | G: 0.2 | H: 3 | I: 1% | J: -8
> CCN(CC)c1ccc(N=Cc2c(O)n(-c3cc(OC)ccc3OC)c(=O)[nH]c2=O)cc1
  A: -11 | B: 9 | C: x | D: x | E: x | F: x | G: 0.5 | H: 11 | I: 18%&6% | J: 37
> CC(=O)O[C@@H]1CC[C@]2(C)C3CC[C@]4(C)C(=O)[C@H](O)CC4C3[C@@H](OC(C)=O)C[C@H]2C1 (stereo partly drawn)
  A: x | B: x | C: 4.4 | D: -3 | E: -2 | F: -1.1 | G: 0.8 | H: -5 | I: -12% | J: x
> O=c1[nH]c(=S)[nH]c(O)c1N=Nc1ccc(SC(F)F)cc1
  A: -3.5 | B: 33 | C: -5.4 | D: 3 | E: 9 | F: 1.0 | G: -14 | H: 3 | I: x | J: -12
> CC(C)OP(=O)(OC(C)C)C(NCc1ccccc1)c1ccccc1 (stereo not drawn)
  A: 2.4 | B: 6 | C: 2.1 | D: -20* | E: -12* | F: 0.8* | G: 1.6 | H: -7 | I: 22% | J: -2

# Sorted by heavy-atom count (falling): four of the compounds above
# Letter code – A = RanGTP-Impb inh; B = Calb FLC; C = AF4-AF9 inh; D = rRNA inh HTS; E = rRNA inh HTS OD600; F = rRNA inh HTS RFP; G = Bfl-1 A1 inh; H = Beta apoptosis; I = Vif TR-FRET; J = T cruzi repl
> CCN(CC)c1ccc(N=Cc2c(O)n(-c3cc(OC)ccc3OC)c(=O)[nH]c2=O)cc1
  A: -11 | B: 9 | C: x | D: x | E: x | F: x | G: 0.5 | H: 11 | I: 18%&6% | J: 37
> CCCCNC(=O)Nc1ccc(C(O)(C(=O)OCC)C(F)(F)F)cc1 (stereo not drawn)
  A: 2.3 | B: -12 | C: x | D: x | E: x | F: x | G: -0.8 | H: -11 | I: u | J: -6
> Cc1cc(C)cc(NC2=NCCCS2)c1
  A: 5.8 | B: -9 | C: 1.5 | D: 15 | E: 11 | F: -2.3 | G: -0.5 | H: 1 | I: x | J: -5
> Cn1c(=O)c2nncnc2n(C)c1=O
  A: u | B: 16 | C: x | D: x | E: x | F: x | G: -0.2 | H: 3 | I: 26% | J: -2

# Screening data as filed in PubChem BioAssay.
